# NPYLR7 ag: agonists of mosquito NPYLR7 receptor, primary screen, cell-based, Aedes aegypti, calcium fluorescence, mosquito biting behavior; Aedes aegypti neuropeptide Y-like receptor 7 (NPYLR7); HEK293T NPYLR7/Galpha15, GCaMP6s calcium fluorescence; activation, % at 10 µM; 270,000 compounds, 0.15% hits; AID 1259423, 2018; in the data active = activation above about 40%;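 also: 0% = vehicle and 100% = reference agonist at the receptor; some compounds past the cut are filed as inactive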
# NPYLR7 ag max-min: further read-out of NPYLR7 ag, marked with its call; activation, %; measured here: Max-Min RFU normalised activation; some inactives read as strong as hits;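 span of the calcium signal over five minutes; 0% = vehicle and 100% = native peptide agonist; compound fluorescence can raise it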
# The depositor's hits bear a star; & = joins results of further samples.
# Values run as follows: NPYLR7 ag	NPYLR7 ag max-min
1: CS(=O)(=O)N1CCN(Cc2cc3n(n2)CCNC3)CC1
  3.3	0.8
2: O=C(NCC1CN(c2ccccc2)C(=O)O1)c1ccccc1 (stereo unspecified)
  0.5	5.3
3: CCc1nc2cc(NC(C)=O)cc(C(=O)N3CCCC(COC)C3)c2n1Cc1cccnc1 (stereo unspecified)
  5.3	-1.6
4: O=C(NC1CCCCCCC1)C1CCCCN1C(=O)c1ccco1 (stereo unspecified)
  -4.6	-5.5
5: CN(C)C1CCCN(C(=O)CCc2nc3cccnc3n2C)CC1 (stereo unspecified)
  7.7	5.2
6: CCOCCn1ccc2c(NC(=O)c3cc(C(F)(F)F)cc(C(F)(F)F)c3)c(OC(=O)N(CC)CC)ccc21
  4.0	1.8
7: C=C(C)Cn1c(C(=O)N2CCN(C(C)=O)CC2)cc2sc(C)cc21
  2.1	1.6
8: N=C1/C(=C\c2cccs2)C(=O)N=C2SC(C34CC5CC(CC(C5)C3)C4)=NN12
  -3.1	-4.0
9: CC(C)(C)OC(=O)N1CCCN(C(=O)c2ccc[nH]c2=O)CC1
  9.5	4.1
10: Cc1ccccc1N(CC(=O)NCc1ccc(Br)s1)S(C)(=O)=O
  -0.9	-4.4
11: COCc1nc(CNC2CSCCSC2)no1
  16.2	11.0
12: COCCCNCC(=O)N1CCc2sccc2C1COc1ccc(C(C)C)cc1 (stereo unspecified)
  26.1	34.8
13: Cc1ccc(C#N)c(SCC(=O)c2cccc(Cl)c2)n1
  5.7	0.0
14: COc1nn(C)cc1C(=O)O
  -4.3	-6.7
15: O=C(NC1CCN(c2ncccn2)CC1)C1CC2CCC1C2 (stereo unspecified)
  -0.4	-3.7
16: CCC(C)Cc1c(C)sc2nc(C3CC3)[nH]c(=O)c12 (stereo unspecified)
  -2.4	-5.2
17: NC(c1ccccc1)c1nn[nH]n1 (stereo unspecified)
  -0.6	2.0
18: COc1cccc(OC)c1-c1ccc(-n2cncc2C(=O)NCc2ccc(Cl)cc2)cc1
  9.8	9.9
19: CCOc1ccc(-c2csc3c(=O)[nH]c(N4CCN(C5CCCCC5)CC4)nc23)cc1OCC
  -2.6	0.0
20: O=C(OC1CCOC1)C1(c2ccc(Cl)cc2)CC1 (stereo unspecified)
  7.7	5.3
21: CSc1ccc(CN2CCC2(C)C(=O)Nc2cccc(Br)c2C)cc1 (stereo unspecified)
  2.8	2.7
22: Cc1cc(CN(C)c2ncnc3ccsc23)no1
  13.6	7.4
23: Cc1c(C(=O)Nc2ccc(N(C)C)nc2)sc2cccc(F)c12
  5.6	1.7
24: Cc1oc2ccc(O)c(CN3CCN(C)CC3)c2c1C(=O)NC1CCCC1
  -0.8	-1.6
25: CCOc1ccc(NC(=O)CSc2nnc(NC(=O)c3cc([N+](=O)[O-])ccc3Cl)s2)cc1
  3.0	3.0
26: Cc1ccc(CSc2ccc3nnc(CCNS(=O)(=O)c4ccc(C)cc4)n3n2)cc1
  4.5	-7.4
27: Cc1ccc(S(=O)(=O)NCC(C)c2ccccc2)cc1C (stereo unspecified)
  2.0	0.9
28: Cc1cccc(C)c1NC(=O)CN1C(=O)NC2(CCSc3ccc(F)cc32)C1=O (stereo unspecified)
  5.9	1.6
29: Cc1ncsc1CCC(=O)N1CCCC(C(=O)c2ccc3ccccc3c2)C1 (stereo unspecified)
  2.5	0.9
30: CC(c1ccc(F)c(Cl)c1)N1CCN(S(N)(=O)=O)CC1 (stereo unspecified)
  4.4	3.3

# Quoted from the listing.
# CN(C)C1CCCN(C(=O)CCc2nc3cccnc3n2C)CC1 (stereo unspecified) | NPYLR7 ag max-min: 5.2
# CS(=O)(=O)N1CCN(Cc2cc3n(n2)CCNC3)CC1 | NPYLR7 ag max-min: 0.8
# O=C(NCC1CN(c2ccccc2)C(=O)O1)c1ccccc1 (stereo unspecified) | NPYLR7 ag: 0.5
# CCOc1ccc(NC(=O)CSc2nnc(NC(=O)c3cc([N+](=O)[O-])ccc3Cl)s2)cc1 | NPYLR7 ag max-min: 3.0
# COc1cccc(OC)c1-c1ccc(-n2cncc2C(=O)NCc2ccc(Cl)cc2)cc1 | NPYLR7 ag max-min: 9.9
# Cc1ccc(S(=O)(=O)NCC(C)c2ccccc2)cc1C (stereo unspecified) | NPYLR7 ag max-min: 0.9

# 3 of the compounds above, as labelled records:
16: CCC(C)Cc1c(C)sc2nc(C3CC3)[nH]c(=O)c12 (stereo unspecified)
- NPYLR7 ag: -2.4
- NPYLR7 ag max-min: -5.2
9: CC(C)(C)OC(=O)N1CCCN(C(=O)c2ccc[nH]c2=O)CC1
- NPYLR7 ag: 9.5
- NPYLR7 ag max-min: 4.1
4: O=C(NC1CCCCCCC1)C1CCCCN1C(=O)c1ccco1 (stereo unspecified)
- NPYLR7 ag: -4.6
- NPYLR7 ag max-min: -5.5

# New compounds follow
# Values run as follows: NPYLR7 ag	NPYLR7 ag max-min
31: CCc1cccc2c(C(CC(=O)NCCCOC)c3ccc(OC)cc3)c[nH]c12 (stereo unspecified)
  4.7	9.9
32: Cc1cc(NC(=O)c2ccccc2)n(-c2nc(C)c(C)c(=O)[nH]2)n1
  5.8	0.0
33: O=C(CN1CCSC1=O)N1CCN(S(=O)(=O)c2cccc(F)c2)CC1
  9.1	13.9
34: N#CC1(NC(=O)c2ccc(-c3n[nH]c(C4CC4)n3)cc2)CCSC1 (stereo unspecified)
  1.3	-2.2
35: COc1ccccc1-c1cc(C(=O)Nc2ccc(F)cc2)nc2cc(-c3ccccc3)nn12
  -5.2	-4.0
36: COc1ccc(N2C(=O)CSC2c2ccc(Br)cc2)cc1Cl (stereo unspecified)
  -3.1	-10.3
37: O=C(NCCn1ncc2c(N3CCCCCC3)ncnc21)c1cccc(C(F)(F)F)c1
  0.6	-1.1
38: CCOc1ccccc1NC(=O)N(CCCOC)CC(=O)Nc1cc(C(C)(C)C)nn1-c1ccc(C)cc1
  13.4	19.1
39: CC1C(=O)N(c2ccccc2Cl)CCN1C(=O)CCc1ccccc1 (stereo unspecified)
  -9.5	-4.4
40: CCOC(=O)c1cnc(-c2ccccc2)nc1N(CC)Cc1ccccc1
  -5.0	-9.4
41: CS(=O)(=O)N1CCC(Oc2ccc(C(=O)N3CCN(CCO)CC3)cc2Cl)CC1
  4.8	5.0
42: Cc1c(C(=O)N2CCN(c3ccccc3)CC2)sc2nc(CN3CCCCC3)[nH]c(=O)c12
  8.4	5.0
43: NC(=O)c1ccc(Cl)c(NS(=O)(=O)c2cccc(OC(F)(F)F)c2)c1
  1.6	6.5
44: COc1cccc(-c2nc(-c3ccc(NC(=O)c4ccc(Br)o4)cc3)no2)c1
  -2.7	-6.8
45: C=CCC1(CC=C)CCCN1C(=O)CC(=O)Nc1ccc(C)cc1C
  20.5	4.2
46: COC(=O)c1ccc(N=C2SC(C(=O)Nc3ccc(C)c(Cl)c3)CC(=O)N2C)cc1 (stereo unspecified)
  -0.3	-3.8
47: CCOc1cccc(N2CCN(C(=O)c3ccccc3Cl)C(C)C2=O)c1 (stereo unspecified)
  6.0	26.8
48: CCCC(O)CN(Cc1ccccc1)Cc1nc2scc(-c3ccc(C)c(C)c3)c2c(=O)[nH]1 (stereo unspecified)
  -7.2	-3.9
49: CC(C)=CC(=O)N1CCC(n2c(=O)oc3cccc(C)c32)CC1
  6.1	7.3
50: COc1cccc(CNC(=O)CCC2CCCN(C(=O)c3sc(C)nc3C)C2)c1 (stereo unspecified)
  3.6&6.5	4.1&6.4
51: CC(=O)N1CCN(CC(=O)Nc2nc(-c3ccccc3)c(C(C)C)s2)CC1
  -0.7	-2.0
52: Cc1ccc(-n2cccn2)c(CN2CCCC(C(=O)c3ccc4c(c3)OCO4)C2)c1 (stereo unspecified)
  -2.7	-6.2
53: OC(COc1ccc(Cl)cc1)CN(Cc1ccsc1)Cc1ccco1 (stereo unspecified)
  0.9	7.5
54: COc1ccc(C)cc1NC(=O)CN1CCCC1CN(C)c1ccccc1 (stereo unspecified)
  4.3	2.4
55: Cc1ccc2[nH]cc(-c3cccc(OCC(N)=O)c3)c2c1
  0.4	-3.5
56: COCC(=O)N1CCN(C(C(=O)NC2CCCc3ccccc32)C2CCCC2)CC1 (stereo unspecified)
  13.8	8.4
57: COC(=O)c1ccc(CNC(C)c2cnn(-c3ccc(OC)cc3)c2C)cc1 (stereo unspecified)
  13.9	5.4
58: CN(Cc1nc2cc(Cl)ccc2c(=O)[nH]1)C1CCCc2ccccc21 (stereo unspecified)
  1.7	-0.3
59: COCCN(Cc1nccn1Cc1ccc(C(F)(F)F)cc1)C(=O)c1ccco1
  18.3	23.7
60: COc1cccc(C(=O)N2C(C(=O)NCc3cccnc3)COC23CCCCC3)c1 (stereo unspecified)
  -0.5	13.4

# The listing continues.
# Values run as follows: NPYLR7 ag	NPYLR7 ag max-min
61: COc1cccc(N2CCN(S(=O)(=O)c3ccc(Cl)cc3)C(C)C2=O)c1 (stereo unspecified)
  12.4	9.5
62: CC(=O)N1CCC[C@H]1C(=O)NCCc1ccc(F)cc1
  10.2	6.3
63: C=CCCS(=O)(=O)N(C)Cc1cccc(Cl)c1
  -9.1	-13.4
64: CCCCSc1nc2c(c(=O)n1-c1ccc(OCC)cc1)SCC2
  11.5	11.3

# In a second layout: results already given
(63) C=CCCS(=O)(=O)N(C)Cc1cccc(Cl)c1
(64) CCCCSc1nc2c(c(=O)n1-c1ccc(OCC)cc1)SCC2

Assay by compound	63	64
NPYLR7 ag	-9.1	11.5
NPYLR7 ag max-min	-13.4	11.3

# This is a subset. The share of hits here may be higher or lower than overall.
